RanGTP-Impb inh: disruptors of Ran-importin-beta complex formation – biochemical, FRET, CFP-Ran, YFP-importin-beta, homogeneous, primary screen; AID 2216; 1.1% of 300,000 active; inhibition, % (no concentration beside the values); cell-free CFP-Ran/YFP-importin-beta FRET ratio;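 active = most replicates above 15%; inconclusive = exactly half above 15%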;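 also: 0% = DMSO wells and 100% = Ran loaded with GDP instead of GTP; wells of about 40 µL received 100 nL stock; the first replicate is given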
Beta cell apopt: blocks beta cell apoptosis | INS-1E cytokine-induced death, ATP luminescence, 48 h; percent of positive-control rescue, neutral wells zero | protection from apoptosis, % (no concentration beside the values) | 0.8% of 300,000 active | AID 435005;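 active = all replicates at 75% or more, or half of them and the mean; inconclusive = half reach 75% but not the mean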;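 also: 0% = cytokine-treated negative control wells and 100% = positive control rescue; higher means more ATP so stronger rescue from cytokine killing; wells of about 40 µL received 100 nL stock; the first replicate is given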
A1 inh: inhibitors of the anti-apoptotic protein A1, read as caspase activation; caspase activation, % (test concentration not listed); AID 2462; MEF A1-2A-BIM cells, Caspase-Glo 3/7 luminescence, 3 h; percent of clofoctol response, vehicle zero; 0.066% of 330,000 active;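 active = over half of replicate activation scores above 10%, or exactly half above 10 with the replicate mean above 10; inconclusive = replicate mean below 10 yet half the replicates above 10; inactive = over half of replicates below 10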;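 also: wells of about 30 µL received 50 nL stock; many hits fall short of the cut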
Vif TR-FRET: inhibitors of Vif binding to APOBEC3G peptide, primary screen, biochemical, TR-FRET, GST-Vif 1-94, biotin-A3G peptide, dose response retest (AID 1117319); TR-FRET GST-Vif / biotin-A3G peptide binding; higher % means a stronger effect; test concentration not given here; strong numbers were not always called active; one-dose inhibition, %; IC50 in µM for titrated hits; 0.57% of 260,000 active;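 active = above the screen mean plus three standard deviations and confirmed in dose response; inconclusive = results disagree or hit not tested in dose response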;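 also: Vif residues 1-94 fused to GST binding biotinylated APOBEC3G peptide 110-148; 0% = full assay without inhibitor and 100% = GST in place of GST-Vif; retest series ran down from 100 µM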
Calb FLC: affects C. albicans growth with fluconazole; C. albicans CaCi-2 (fluconazole-resistant clinical isolate) + fluconazole, Alamar Blue growth, 48 h; growth inhibition, % (concentration not given with the values); 0.57% of 300,000 active; AID 1979;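 active = most replicates above 75%; inconclusive = exactly half above 75%; inactive = most below 75%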;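 also: all wells also contain fluconazole at 8 µg/ml as a sub-toxic cotreatment; 0% = median of DMSO wells and 100% = median of geldanamycin control wells; wells of about 8 µL received 7.5 nL stock; the first replicate is given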
LANA-H2B inh: blocks KSHV LANA binding to histone H2A/H2B | cell-free LANA-H2A/H2B peptide, fluorescence polarization | inhibition, % (test concentration not listed) | 0.6% of 320,000 active; in the data active = inhibition mostly above about 10%, no sharp cut-off; inactive = mostly below about 6.7%;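 also: stock transfer was 7.5 nL into about 10 µL; 0% = median of vehicle wells and 100% = median of positive control wells; one replicate is shown; the record names a cut of 25% in any replicate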
Target sequence (Q9QR71 whole entry, looked up): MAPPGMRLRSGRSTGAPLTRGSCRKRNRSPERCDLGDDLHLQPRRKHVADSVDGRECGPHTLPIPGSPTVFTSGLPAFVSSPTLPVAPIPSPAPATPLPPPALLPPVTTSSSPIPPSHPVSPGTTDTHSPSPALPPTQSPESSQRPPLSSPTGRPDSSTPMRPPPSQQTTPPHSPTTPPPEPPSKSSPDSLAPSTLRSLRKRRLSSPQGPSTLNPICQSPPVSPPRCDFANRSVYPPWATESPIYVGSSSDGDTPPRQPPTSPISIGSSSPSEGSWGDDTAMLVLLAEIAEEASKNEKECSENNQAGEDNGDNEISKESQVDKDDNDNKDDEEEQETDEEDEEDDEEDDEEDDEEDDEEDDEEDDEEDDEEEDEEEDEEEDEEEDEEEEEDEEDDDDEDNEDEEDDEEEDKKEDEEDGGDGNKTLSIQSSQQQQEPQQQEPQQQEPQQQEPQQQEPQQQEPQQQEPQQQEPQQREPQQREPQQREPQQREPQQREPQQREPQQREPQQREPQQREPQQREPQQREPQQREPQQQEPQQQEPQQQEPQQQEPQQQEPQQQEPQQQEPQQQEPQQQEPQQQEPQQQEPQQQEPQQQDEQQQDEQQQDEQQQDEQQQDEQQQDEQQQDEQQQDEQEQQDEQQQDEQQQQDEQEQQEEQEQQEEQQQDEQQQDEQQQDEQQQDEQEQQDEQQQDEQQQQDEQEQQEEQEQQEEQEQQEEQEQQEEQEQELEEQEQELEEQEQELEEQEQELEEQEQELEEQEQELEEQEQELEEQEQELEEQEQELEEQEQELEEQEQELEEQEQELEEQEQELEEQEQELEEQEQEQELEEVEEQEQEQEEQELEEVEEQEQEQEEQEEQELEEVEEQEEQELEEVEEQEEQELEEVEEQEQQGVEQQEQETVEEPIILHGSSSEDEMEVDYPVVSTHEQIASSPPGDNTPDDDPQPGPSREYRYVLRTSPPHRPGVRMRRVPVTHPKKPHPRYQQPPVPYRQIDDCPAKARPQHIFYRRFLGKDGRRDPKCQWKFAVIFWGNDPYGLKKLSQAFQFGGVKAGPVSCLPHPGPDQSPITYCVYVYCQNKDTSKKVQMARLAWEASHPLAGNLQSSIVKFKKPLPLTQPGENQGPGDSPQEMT
T cruzi repl: blocks replication of Trypanosoma cruzi; T. cruzi beta-gal in NIH3T3, luminescence, 90 h; inhibition, % (test concentration not listed); 1.4% of 300,000 active;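 active = mean inhibition across valid replicates above about 55%, limit read from the data; inconclusive = mean below that limit but half or more replicates reach it; inactive = mean below it, under half of replicates reach it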;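 also: signal also drops with host cell toxicity which is not excluded here; 0% = plate median of DMSO wells and 100% = zero luminescence signal; higher percent means less beta-gal luminescence so fewer parasites; stock transfer was 50 nL into about 50 µL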
MLL AF4-AF9 inh: inhibitors of human MLL-AF4/AF9 interaction | AlphaScreen, biotin-AF4 peptide binding to FLAG-AF9 | inhibition, % at 10 µM | 0.47% of 350,000 active | P42568;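 active = every replicate reaching a set inhibition limit, whatever the replicate mean, cut at about 25% in these data; inconclusive = mean inhibition reaches that limit but some replicates miss it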;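 also: 0% = plate neutral control median and 100% = total signal loss; the record names both 10 and 1 µM as test concentration; the first replicate is given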
* hit, by the source's call; ? = inconclusive; . = not tested or not shown; & = joins results of further samples.

mol	RanGTP-Impb inh	Beta cell apopt	A1 inh	Vif TR-FRET	Calb FLC	LANA-H2B inh	T cruzi repl	MLL AF4-AF9 inh
Cc1ccc([C@@H]2CC=C(C(=O)O)CN2S(=O)(=O)c2ccccc2C)cc1	.	1	0.1	.	.	0.0	.	-2.2
CN(CC(=O)NCc1ccccn1)S(=O)(=O)c1ccc(Br)cc1	-3.9	-7	-0.2	2%	2	-5.5	0	-2.0
CC1CCCC(C)N1C(=O)COC(=O)c1cccnc1Cl (stereo not drawn)	.	-4	-0.5	.	.	1.1	.	1.8
CC1CN(C(=O)CCC(=O)NCc2ccc(Cl)cc2)c2ccccc2S1 (stereo not drawn)	-3.5	-4	0.5	.	2	6.7	-1	-4.2
Cc1ccccc1NC(=O)c1ccccc1NS(=O)(=O)c1cccc2cccnc12	-1.5	2	-0.3	29%	27	-2.1	-1	.
CN1CCN(c2nc(NCCOC34CC5CC(CC(C5)C3)C4)nc(OCC(F)(F)F)n2)CC1	-0.8	7	0.1	6%&2%	8	-2.2	52	.
COc1ccc(Cn2c(C3CC3)nc3ccc(NC(=O)C4CC4)cc3c2=O)cc1	-1.7	-6	-11	-12%	-4	4.1	29	.
NS(=O)(=O)c1cccc(NC(=O)COC(=O)C2(c3cccc(F)c3)CCCC2)c1	-1.7	3	2.3	2%	5	0.7	-5	.
CCc1nn(CC(=O)N(C)C2CCCCC2)c(=O)c2cc3cc(C)ccc3n12	0.7	.	.	.	2	.	5	1.2
CCc1ccc(N2CC(C(=O)N3CCCC3)CC2=O)cc1 (stereo not drawn)	5.7	-8	1.1	.	8	-6.4	-8	0.0
NC1=NC(=O)C2(COC(c3cccnc3)OC2)S1 (stereo not drawn)	-0.6	.	0.3	26%	4	-0.7	16	-0.9
Cc1cccc(CN2CCOCCS2(=O)=O)c1	-1.7	-2	-0.7	.	-2	-5.2	-10	-2.2
Cc1ccccc1N(C(=O)CCC(=O)Nc1ccccn1)C(C(=O)NC(C)C)c1ccc(O)cc1 (stereo not drawn)	-4.1	.	.	3%	10	.	8	.
c1ccc(-n2nnnc2SCc2cccc3nsnc23)cc1	-0.7	0	0.1	-9%	9	-0.4	0	.
COc1ccc(OC)c(Nc2nc(-c3ccccc3O)nc3ccccc23)c1	-5.2	.	-0.1	-75%	-3	0.4	16	-0.2
COc1cc(NC(=O)CCNC(=O)Cn2cnc3sc4c(c3c2=O)CCCC4)cc(OC)c1OC	0.2	-8	0.1	0%	4	-1.4	1	-11
CCOc1ccc(-n2c(=O)[nH]cc(C(=O)N3CCCc4ccccc43)c2=O)cc1	2.6	.	0.5	-3%	-3	4.1	-1	.
CCCCC(=O)Nc1ccc(NC(=O)c2cc(OC)c(OC)c(OC)c2)cn1	-1.3	10	0.5	15%	-2	-5.9	-12	.
C/C(=N\Nc1ccc(C(F)(F)F)cc1[N+](=O)[O-])C(C)C	-2.5	3	0.0	7%	-4	1.1	-11	0.6
COc1ccccc1-n1c(=O)[nH]c2c(C(N)=O)nc(C3CCCCC3)nc21	-2.5	.	0.8	-2%	-8	-2.4	9	0.5
Cc1ccc(SCC(=O)N2CCC(C(N)=O)CC2)cc1	1.6	2	0.4	.	-11	-1.4	-8	-0.5
O=C(/C=C/c1ccco1)Nc1ccc(-c2nc3ccccc3[nH]2)cc1	2.4	-2	0.3	.	22	3.7	-45	.
Cc1cc(C(=O)COc2cccnc2[N+](=O)[O-])c(C)n1-c1ccccc1	0.3	-3	-1.1	9%	-11	-4.0	-3	-45
CCN(CC(=O)Nc1ccc2c(c1)OCCO2)C(=O)c1cccc(OCC(C)C)c1	1.9	3	-1.1	-3%	11	-5.6	-3	-3.5
O=C(c1ccc(Cl)cc1)N(Cc1ccc(Br)cc1)N1C(=O)CCC1=O	-3.5	-6	0.2	-1%	27	-1.5	0	-1.6
COc1cc(OC)c(C2C(C(=O)O)c3ccccc3C(=O)N2C)cc1OC (stereo not drawn)	-0.4	-3	0.9	-3%	-6	-2.3	-1	.
CCCCSc1nc2c(=O)[nH][nH]c(=O)c2n1Cc1ccccc1	5.4	-2	0.7	-1%	-1	0.2	-13	.
CCOC(=O)N1CCN(S(=O)(=O)c2ccc(C)cc2)C1c1ccc(OC)cc1 (stereo not drawn)	2.9	-7	0.3	-4%	18	-1.1	-3	.
COc1ccc(N2CCC(CNC(=O)Nc3ccc(C)c(C)c3)C2)cc1 (stereo not drawn)	1.1	0	0.3	20%	12	-4.4	5	-11
CCOC(=O)c1[nH]c(C)c(C(=O)OCC(=O)NC(C)c2ccc(F)cc2)c1C (stereo not drawn)	.	10	0.3	-11%	.	-1.3	.	0.4
O=C(COC(=O)CCS(=O)(=O)c1ccc(F)cc1)NC1CCCCC1	.	-1	0.7	-9%	.	-2.6	.	0.3
COCC(=O)OCC(=O)Nc1ccccc1-c1ccccc1	0.3	-7	-0.5	2%	-2	2.0	-27	-1.2
O=C(CCCN1C(=O)c2ccccc2C1=O)NC1=NCCS1	3.4	.	.	5%	-17	.	-3	.
Cc1cccc(CSc2ncnc3ccccc23)c1	-2.5	.	-1.1	-20%	-45	0.6	-7	-4.2
CCOC(=O)c1c(C)[nH]c(C)c1C(=O)CSc1nncs1	0.4	-10	0.1	-9%	15	5.1	-11	-6.0
O=C(Nc1cccc(-c2nc3ccccc3c(=O)o2)c1)c1ccccc1	1.8	3	-0.4	-3%	-17	-8.2	-11	-0.9
CCOC(=O)C1(C)NC(c2cccs2)C2C(=O)N(c3ccc(C)cc3)C(=O)C21 (stereo not drawn)	0.2	-4	0.3	.	-15	-76	4	0.3
CC(Oc1ccccc1)C(=O)Nc1ccc(S(=O)(=O)N2CCN(C)CC2)cc1 (stereo not drawn)	6.6	.	0.9	-6%	-2	1.2	2	2.2
CC1(C)Cc2cccc(C(=O)Nc3ccncc3)c2O1	-0.1	-9	-0.7	1%	1	-4.0	30	.
CC(OC(=O)c1ccccn1)C(=O)Nc1ccc2c(c1)OCCO2 (stereo not drawn)	.	2	2.6	5%	.	0.7	.	-0.1
Cc1ccc(-n2cnc3c(sc4nccc(N(C)C)c43)c2=O)cc1	4.1	-13	0.0	-4%	10	2.6	15	.
COc1ccc(CNC(=O)CNC(=O)c2cccs2)c(OC)c1	1.9	1	0.2	.	0	-3.8	-16	0.5
COc1ccc(OCCCC(=O)OCC(=O)Nc2sccc2C(N)=O)cc1	?	0	-1.5	-5%	5	.	-8	?
CCOc1cc(/C=C2\C(=O)N(CCc3ccc(OC)c(OC)c3)C(C)=C2C(=O)OC)ccc1O	-3.4	.	0.7	13%	22	8.8	-22	.
COc1ccc(-c2sc3ccc(OC)cc3c2C#CCCO)cc1	1.3	7	-0.8	.	3	-1.5	23	.
COc1cccc(NC(=O)NNS(=O)(=O)c2ccc(OC)cc2OC)c1	4.2	-6	1.6	.	40	-1.9	-19	-4.0
COc1ccc(/C=C\C(=O)NCC(=O)N/N=C/c2cccc(OC)c2O)cc1	?	-4	-0.3	-3%	3	3.9	-13	-11
COC(=O)c1ccc(C2NC(=O)c3c(sc(C)c3C)N2)cc1 (stereo not drawn)	-0.9	-8	-0.9	.	-13	3.0	-6	-1.5
O=C(Cc1cccs1)NC1(C(=O)NC2CCCC2)CCCCC1	-1.1	-7	0.0	-7%	22	-4.4	-9	-0.9
CCCCC(=O)Nc1cccc(NC(=O)c2ccc3c(c2)OCO3)c1	-1.3	4	-1.8	-3%	-4	-1.5	20	.

More compounds:
mol	RanGTP-Impb inh	Beta cell apopt	A1 inh	Vif TR-FRET	Calb FLC	LANA-H2B inh	T cruzi repl	MLL AF4-AF9 inh
Cc1csc(N/N=C\c2cccnc2)n1	?	2	1.4	24%	-4	0.5	-16	3.0
COC(=O)c1ccc(NC(=O)C(=O)N2CCN(C(=S)Nc3cccc(C)c3C)CC2)cc1	?	.	-0.3	-3%	9	-1.8	2	.
Clc1ccc(-c2nnc(C34CC5CC(CC(C5)C3)C4)o2)cn1	0.9	0	0.3	-4%	6	.	2	.
Cc1cc(C)n2nc(SCC(=O)NC3CCCCC3C)nc2n1 (stereo not drawn)	2.5	-2	-0.2	.	-11	2.9	-10	-2.0
C/C(CC1CC(C)(C)OC1=O)=N\NC(N)=S (stereo not drawn)	-5.2	2	0.8	0%	-5	-0.2	-30	-6.7
O=C(CSc1nnc(C2COc3ccccc3O2)o1)N1CCN(c2ccccc2)CC1 (stereo not drawn)	?	1	0.7	-1%	-3	-4.3	6	-1.9
Cc1ncc(CO)c(/C=N/NC(=O)c2ccc(Br)cc2)c1O	21*	24	0.4	.	23	2.4	-18	.
C(=N\n1cnnc1)/c1ccc2c(c1)OCO2	1.2	-2	0.5	9%	?	-0.6	-8	.
Cc1ccc(SCc2cc(=O)[nH]c(/N=C(\N)Nc3ccccc3Sc3ccccc3)n2)cc1	3.9	-2	0.1	.	3	2.8	-3	.
CCn1c(=O)c2c(n3c(=S)[nH]nc13)-c1ccccc1CC21CCCCC1	-2.8	-5	0.9	-6%	-18	-0.5	25	-7.9
O=C1COc2ccc(C(=O)COC(=O)Cc3ccc(Cl)cc3)cc2N1	4.8	5	0.0	-5%	4	-3.8	2	0.2
CCOc1ccc(NS(=O)(=O)c2cc(NC(=O)C3CC3)ccc2C)cc1Br	.	4	-1.1	-4%	.	3.7	.	-1.7
CSc1nc(Cl)cc(N2CCOCC2)n1	3.3	-3	1.1	.	-23	6.3	-8	-1.5
Cc1ccc(S(=O)(=O)NC2=NCN(C(C)C)CN2)cc1	-2.9	-4	0.2	.	-8	-5.8	10	0.0
O=C(CSc1nc2ccccc2[nH]1)Nc1ccc(N2CCOCC2)cc1	2.8	-2	0.2	6%	-1	-4.1	-6	2.3
COCCCNC(=O)c1cc(C)nn1-c1ccccc1	2.2	-1	0.4	?	?	0.5	-12	1.6
CC(=O)c1sc(NC(=O)c2cccc3ccccc23)nc1C	5.7	0	1.5	-16%	-4	3.0	-8	.
COc1ccc(CC(=O)N2CCN(c3ccccc3)CC2)cc1	-2.9	.	0.6	.	-16	0.3	0	1.9
CCOC(=O)C(Cc1ccc(O)cc1)NC(=O)CCc1c[nH]c2ccccc12 (stereo not drawn)	-0.7	-2	?	-3%	-4	-3.6	-16	-2.0
Cc1ccc(C(=O)N2CCOCC2)cc1S(=O)(=O)Nc1cccc(C)c1C	1.5	1	1.3	24%	1	-1.1	-4	.
N#CCC(=O)Nc1ccc(C(=O)NNC(=O)CCN2CCN(c3ccccc3)CC2)cc1	.	-2	0.5	.	.	-1.1	.	0.5
Cc1c(C(=O)NCc2cccnc2)sc2ncn(CC(=O)N3CCCCC3C)c(=O)c12 (stereo not drawn)	1.9	.	.	-4%	-2	.	-6	.
COCC1CCCCN1Cc1cn(-c2ccccc2)nc1-c1ccc2c(c1)OCO2 (stereo not drawn)	-2.2	-19	-0.3	.	-10	5.4	7	3.6
O=C(Cn1cnc2c(nnn2Cc2ccc(Cl)cc2)c1=O)c1ccccc1	12	2	-0.9	.	-3	-1.5	5	9.1
